Mtb H37Rv = M. tuberculosis H37Rv growth inhibitors, H37Rv strain (AID 1626) | M. tuberculosis H37Rv growth inhibition; higher % means a stronger effect | one-dose inhibition, % at 10 µM; IC50 in µM for titrated hits | 0.95% of 220,000 active;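 active = confirmed in a dose series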;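 also: bacteria incubated seven days before Alamar blue readout; 0% = bacteria only wells and 100% = bacteria with antibiotic wells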
Mtb bLac sens = beta-lactam sensitization of Mtb H37Rv | M. tuberculosis H37Rv growth with meropenem, percent inhibition; hits of this screen are not shown here | inhibition, % at 25 µM | 0.27% of 330,000 active | AID 434955;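 active = about 74% or more and at least 40 points above the plate without the antibiotic, then above 30% in a dose series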;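 also: growth measured after seven days incubation then overnight dye step; 0% = bacteria only wells and 100% = bacteria with antibiotic; twin plates without the antibiotic show which effects depend on it; some results filed as inactive read as strong as hits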
YopH PTP inh = blocks Yersinia enterocolitica YopH tyrosine phosphatase; fluorescence Ex485/Em525; inhibition, %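 (about 10 µM by stock and volumes)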; 0.16% of 140,000 active; AID 898;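 active = inhibition of 50% or more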;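 also: controls were vehicle for no effect and minimum signal wells for full effect; inactives centre near -20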
Arbovirus inh = antivirals against arbovirus infection; inhibition, % at 10 µM; 0.37% of 200,000 active; arbovirus infection cell-based antiviral screen; AID 1251;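 active = inhibition from about 30%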;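 also: bluetongue infection of BSR cells; cell survival read as ATP light after 72 h; 0% = infected wells without compound and 100% = uninfected wells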
RecA splice inh = inhibitors of M. tuberculosis RecA intein splicing; P9WHJ3; cell-free RecA intein splicing, fluorescence; inhibition, %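 (about 9 µM by stock and volumes)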; 0.75% of 290,000 active; AID 2221; in the data active = inhibition above about 30%;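 also: 0% = vehicle wells and 100% = reference inhibitor control wells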
Target sequence (P9WHJ3 whole entry, looked up, canonical isoform): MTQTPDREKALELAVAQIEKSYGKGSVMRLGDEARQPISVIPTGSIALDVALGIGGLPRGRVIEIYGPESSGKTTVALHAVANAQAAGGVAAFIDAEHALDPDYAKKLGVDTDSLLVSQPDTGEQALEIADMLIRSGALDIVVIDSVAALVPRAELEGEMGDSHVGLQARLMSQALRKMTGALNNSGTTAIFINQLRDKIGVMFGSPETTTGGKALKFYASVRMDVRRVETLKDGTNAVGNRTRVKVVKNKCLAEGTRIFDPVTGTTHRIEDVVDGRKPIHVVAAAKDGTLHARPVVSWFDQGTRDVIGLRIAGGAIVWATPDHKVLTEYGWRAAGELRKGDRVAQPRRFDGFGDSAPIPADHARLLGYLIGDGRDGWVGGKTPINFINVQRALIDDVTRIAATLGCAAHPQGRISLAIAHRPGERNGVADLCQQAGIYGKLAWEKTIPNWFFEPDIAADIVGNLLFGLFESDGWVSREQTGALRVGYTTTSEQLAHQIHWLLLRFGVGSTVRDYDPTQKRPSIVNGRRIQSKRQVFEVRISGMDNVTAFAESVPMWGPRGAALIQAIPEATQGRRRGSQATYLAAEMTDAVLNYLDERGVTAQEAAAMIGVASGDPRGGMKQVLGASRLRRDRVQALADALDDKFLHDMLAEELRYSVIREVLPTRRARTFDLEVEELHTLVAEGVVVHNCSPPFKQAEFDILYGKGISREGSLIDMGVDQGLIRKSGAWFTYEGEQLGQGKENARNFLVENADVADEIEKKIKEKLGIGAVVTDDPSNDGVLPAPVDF
Arbovirus inh repeat = recorded beside Arbovirus inh, whose call it bears; inhibition, %; measured here: 10K subset replicate screen; many hits read low in the repeat;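 first of two repeat runs on a subset; 0% = infected and 100% = uninfected wells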
* = called active by the depositor; . = not tested or not shown; & = joins results of further samples. The list is partial. The share of hits here may be higher or lower than overall.

SMILES | Mtb H37Rv | Mtb bLac sens | YopH PTP inh | Arbovirus inh | RecA splice inh | others
COc1ccccc1OCC(O)COC(N)=O (centres undefined) | -4.2% | -3.6 | -42.5 | 0.9 | -1.5
O=C1N(c2ccccc2)c2ccccc2C1(Cc1ccncc1)Cc1ccncc1 | 0.0%&-4.7%&-2.3% | 0.9 | . | 3.6 | 3.7&-0.1
CCCn1ncc(CN2CCCC(C(=O)c3cccc(OC(C)C)c3)C2)c1C (centres undefined) | 0.0% | -7.7 | . | . | -4.2
CN(C)CCCN1c2ccccc2Sc2ccccc21 | -4.1% | 11.0 | -12.2 | -28.4 | -1.5
N=C(N=C(N)N)N1CCOCC1 | . | 1.7 | . | . | -1.5
CC(=O)O[C@]1(C(C)=O)CC[C@H]2[C@@H]3C=C(Cl)C4=CC(=O)[C@@H]5C[C@@H]5[C@]4(C)[C@H]3CC[C@@]21C | -5.6% | 1.2&-3.0 | . | . | 7.6
Cc1coc2c1C(=O)C(=O)c1c-2ccc2c1CCCC2(C)C | 3.23µM* | 99.4 | . | -0.4 | 11.6
CC1=NN(c2ccccc2)C(=O)C1 | -7.5% | 3.7 | 34.0 | -3.6 | 89.1*
CC1(C)OC2CC3C4CC(F)C5=CC(=O)C=CC5(C)C4(F)C(O)CC3(C)C2(C(=O)CO)O1 (centres undefined) | . | 3.0 | . | . | -1.9
CN1CCC(=C2c3ccccc3CCc3sccc32)CC1 | -4.2%&-0.4% | -0.2&-2.1 | . | -8.1 | -1.1
CN(C)C/C=C(/c1ccc(Br)cc1)c1cccnc1 | -3.1% | 1.9 | . | . | -0.3
COc1ccc(CN(CCN(C)C)c2ccccn2)cc1 | -4.9% | -3.7&-2.1 | -46.8 | 2.0 | -2.1
CCOc1ccc(S(=O)(=O)N2CCCCCC2)c2ccccc12 | 9.4% | -6.1 | 2.7 | -10.2 | 13.3
CC(C)Cn1cnc2c1c(=O)n(C)c(=O)n2C | -9.0% | -0.4 | . | -3.1 | -5.5 | Arbovirus inh repeat=-3.0
C/C=C/C=N\NC(=O)c1ccncc1 | . | 97.6 | . | . | 0.5
Nc1ccc(C(=O)Nc2ccccc2N)cc1 | . | -2.7 | . | . | 1.0
c1ccc2c(CC3=NCCN3)cccc2c1 | -4.8% | -1.2 | -46.3 | -2.4 | -0.9
O=c1cc[nH]c(=O)[nH]1 | . | 5.4 | . | . | 2.3
CC(=O)[C@H]1CC[C@H]2[C@@H]3C[C@H](C)C4=CC(=O)CC[C@]4(C)[C@H]3[C@@H](O)C[C@]12C | -8.8% | 1.8 | -20.9 | 16.2 | 0.0
Nc1cc(-c2ccncc2)c[nH]c1=O | -8.4% | -8.0 | -6.8 | 15.5 | 21.3

Continued; it opens with the 2 that closed the last part.
SMILES | Mtb H37Rv | Mtb bLac sens | YopH PTP inh | Arbovirus inh | RecA splice inh | others
CC(=O)[C@H]1CC[C@H]2[C@@H]3C[C@H](C)C4=CC(=O)CC[C@]4(C)[C@H]3[C@@H](O)C[C@]12C | -8.8% | 1.8 | -20.9 | 16.2 | 0.0
Nc1cc(-c2ccncc2)c[nH]c1=O | -8.4% | -8.0 | -6.8 | 15.5 | 21.3
CC(Oc1c(Cl)cccc1Cl)C1=NCCN1 (centres undefined) | -9.4% | -2.6 | . | . | -0.1
C[C@]12CC[C@H]3[C@@H](CCC4=CC(=O)CC[C@@]43C)[C@@H]1CC[C@@H]2C(=O)CO | 4.7% | 4.9 | -48.4 | 10.1 | 1.5
COc1nc(C)nc(Cl)c1NC1=NCCN1 | -0.5% | -5.1&-5.5 | . | . | 0.6
COc1cc2nc(N3CCN(C(=O)C4COc5ccccc5O4)CC3)nc(N)c2cc1OC (centres undefined) | 12.9% | 11.9 | -14.6 | -40.2 | 3.1
O=C1NCC2(CCN(CCc3ccccc3)CC2)O1 | -7.2% | 1.2 | . | . | -0.4
CCCOc1ccccc1-c1nc2n[nH]nc2c(=O)[nH]1 | -17.1% | 1.8 | . | . | -0.1
NS(=O)(=O)c1cc2c(cc1C(F)(F)F)NC(Cc1ccccc1)NS2(=O)=O (centres undefined) | -8.7% | -5.4 | -20.8 | 2.6 | -0.4
O=C(O)COC(=O)Cc1ccccc1Nc1c(Cl)cccc1Cl | . | 0.7 | . | . | 2.1
Cc1nc2c3ccccc3nc(NNC(=O)CCC(=O)N3CCN(c4ccccc4)CC3)n2n1 | . | 2.9 | . | . | -2.1
Cc1nnc(NS(=O)(=O)c2ccc(N)cc2)s1 | 61.0% | 96.4 | -53.3 | 3.9 | -1.2
CCOC(=O)C1(CCOc2ccccc2)CCN(Cc2ccc(O)c(Cl)c2)CC1 | . | 82.9 | . | . | 42.7*
CC1(C)O[C@H]2CC(=O)OCC23[C@H]2CC[C@@]4(C)[C@H](c5ccoc5)OC(=O)[C@H]5O[C@]54[C@]2(C)C(=O)C[C@@H]13 (some centres undefined) | . | 1.7 | . | . | 0.7

In the list so far, 13 have nitrogen in an aromatic ring.
SMILES | Mtb H37Rv | Mtb bLac sens | YopH PTP inh | Arbovirus inh | RecA splice inh | others
O=C1N(c2ccccc2)c2ccccc2C1(Cc1ccncc1)Cc1ccncc1 | 0.0%&-4.7%&-2.3% | 0.9 | . | 3.6 | 3.7&-0.1
CCCn1ncc(CN2CCCC(C(=O)c3cccc(OC(C)C)c3)C2)c1C (centres undefined) | 0.0% | -7.7 | . | . | -4.2
CN(C)C/C=C(/c1ccc(Br)cc1)c1cccnc1 | -3.1% | 1.9 | . | . | -0.3
COc1ccc(CN(CCN(C)C)c2ccccn2)cc1 | -4.9% | -3.7&-2.1 | -46.8 | 2.0 | -2.1
CC(C)Cn1cnc2c1c(=O)n(C)c(=O)n2C | -9.0% | -0.4 | . | -3.1 | -5.5 | Arbovirus inh repeat=-3.0
C/C=C/C=N\NC(=O)c1ccncc1 | . | 97.6 | . | . | 0.5
O=c1cc[nH]c(=O)[nH]1 | . | 5.4 | . | . | 2.3
Nc1cc(-c2ccncc2)c[nH]c1=O | -8.4% | -8.0 | -6.8 | 15.5 | 21.3
COc1nc(C)nc(Cl)c1NC1=NCCN1 | -0.5% | -5.1&-5.5 | . | . | 0.6
COc1cc2nc(N3CCN(C(=O)C4COc5ccccc5O4)CC3)nc(N)c2cc1OC (centres undefined) | 12.9% | 11.9 | -14.6 | -40.2 | 3.1
CCCOc1ccccc1-c1nc2n[nH]nc2c(=O)[nH]1 | -17.1% | 1.8 | . | . | -0.1
Cc1nc2c3ccccc3nc(NNC(=O)CCC(=O)N3CCN(c4ccccc4)CC3)n2n1 | . | 2.9 | . | . | -2.1
Cc1nnc(NS(=O)(=O)c2ccc(N)cc2)s1 | 61.0% | 96.4 | -53.3 | 3.9 | -1.2
